GALR2 agonist = GALR2 receptor agonists, primary screen, cell-based | Galanin receptor type 2 (Homo sapiens), O43603 | GALR2-expressing cells, agonist activation read-out | activation, %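 (tested at 5 µM)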 | 0.48% of 140,000 active;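 active = above mean plus 3 SD of all compounds, about 5% in these data, not always enough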;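 note: 0% = vehicle buffer wells and 100% = reference agonist at full effect; tested in CHO reporter cells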
Target sequence (O43603 whole entry, looked up): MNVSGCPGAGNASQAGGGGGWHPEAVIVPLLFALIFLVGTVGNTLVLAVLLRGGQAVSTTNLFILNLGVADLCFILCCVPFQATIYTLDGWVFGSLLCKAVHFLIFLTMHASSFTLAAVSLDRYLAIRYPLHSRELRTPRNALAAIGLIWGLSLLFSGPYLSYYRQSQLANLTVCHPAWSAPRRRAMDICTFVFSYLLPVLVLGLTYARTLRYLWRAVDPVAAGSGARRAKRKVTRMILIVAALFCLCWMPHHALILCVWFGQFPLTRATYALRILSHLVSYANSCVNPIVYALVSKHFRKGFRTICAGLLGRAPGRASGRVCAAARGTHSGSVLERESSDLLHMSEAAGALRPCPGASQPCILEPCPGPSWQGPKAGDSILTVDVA
RGS16-Gao HTS = modulators of RGS16 binding to Galphao, primary screen, biochemical, human proteins, multiplexed bead flow cytometry. bead-based flow cytometry RGS16-Galphao binding, fluorescence; actives lie on both sides. AID 1441, 2008. Regulator of G-protein signaling 16 (Homo sapiens) + Guanine nucleotide-binding protein …. 0.38% of 220,000 active. binding response (% of control), % at 10 µM;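 active = below 25% or above 175%, edge rows of some plates excepted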;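 note: Galphao activated by GDP with aluminum fluoride before binding; 100% = wells without compound and 0% = beads without RGS; some results beyond the cut were filed as inactive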
Target sequence (O15492 whole entry, looked up): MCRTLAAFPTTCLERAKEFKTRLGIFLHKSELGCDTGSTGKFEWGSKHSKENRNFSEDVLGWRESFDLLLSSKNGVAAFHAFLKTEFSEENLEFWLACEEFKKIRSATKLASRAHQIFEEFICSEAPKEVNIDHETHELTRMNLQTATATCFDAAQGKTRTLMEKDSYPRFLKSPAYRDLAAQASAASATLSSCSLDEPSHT
Target sequence (P09471 whole entry, looked up): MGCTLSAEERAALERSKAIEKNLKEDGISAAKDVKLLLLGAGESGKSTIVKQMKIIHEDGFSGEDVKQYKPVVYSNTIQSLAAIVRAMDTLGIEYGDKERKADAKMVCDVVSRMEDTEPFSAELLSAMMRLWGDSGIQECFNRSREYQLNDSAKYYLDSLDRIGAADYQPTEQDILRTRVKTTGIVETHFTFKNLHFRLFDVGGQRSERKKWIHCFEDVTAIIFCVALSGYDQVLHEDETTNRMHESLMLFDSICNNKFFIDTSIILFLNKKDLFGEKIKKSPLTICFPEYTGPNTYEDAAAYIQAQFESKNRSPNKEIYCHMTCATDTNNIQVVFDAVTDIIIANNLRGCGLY
HSV replic up = enhancers of HSV replication in host cells, fold increase, host cell viability. maximum fold increase. 0.005% of 220,000 active. HSV replication augmentation in cells;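 active = peak rise of 1.5-fold or more in the series; inconclusive = self-fluorescent or not available for retest; tested in PC3 cells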;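 note: first round at 10 µM; read as green reporter fluorescence; hits show the peak of a series up to 25 µM; 1 = signal of infected wells without compound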
PKD1 inh = inhibitors of human PKD1 kinase, biochemical, fluorescence polarization | 0.056% of 200,000 active | inhibition, %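 (about 10 µM by stock and volumes)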 | PKD1 kinase fluorescence polarization assay | AID 797, 2007;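 active = inhibition of 50% or more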;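 note: controls were vehicle for no effect and a reference inhibitor for full effect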
INS promoter inh = inhibitors of insulin promoter-driven GFP, primary screen, imaging, TRM-6 cells (human fetal islet line), eGFP reporter, cell count; reporter expression induced with tamoxifen; inhibition, % at 2 µM; 0.9% of 130,000 active;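 active = inhibition above the mean plus 3 SD, with well images judged a real hit on visual review, cut at about 60% in these data, passing the limit was not always enough; inconclusive = inhibition over the cutoff but images rejected on review; inactive = inhibition not above the cutoff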
INS promoter inh cell count = also measured in INS promoter inh; calls as there; normalized cell count, %; measured here: cell count, toxicity; reference of the scale not given here;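 cells exposed to compound for 48 h; stained nuclei by imaging scaled within each plate; lower means fewer cells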
HSV replic up primary fold = second read-out of HSV replic up, no call of its own (marks repeat the call); fold increase; compound at 10 µM; measured here: primary screen fold increase 10 uM; tested in PC3 cells;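 GFP signal in the first replicate; 1 = infected wells without compound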
The depositor's hits bear a star; i = inactive; ? = inconclusive; . = not tested or not shown.

canonical_smiles,HSV replic up primary fold,PKD1 inh,RGS16-Gao HTS,INS promoter inh cell count,GALR2 agonist,INS promoter inh,HSV replic up
Cc1ccc(S(=O)(=O)N(CC(O)CN2CCCC2)c2ccccc2)cc1 (stereo unspecified),0.79,5,88,.,-0.8,.,i
Cc1cc(C)[n+]2[nH]c(N)c(N=Nc3ccccc3)c2n1,1,.,102,.,.,.,i
Cc1ccc(NC(=O)C(=Cc2ccc(C(=O)O)cc2)C(=O)Nc2ccc(C)cc2C)c(C)c1,0.53,.,80,.,.,.,i
S=c1nc(-c2ccccc2Br)[nH][nH]1,0.78,-5,102,124,-1.2,5,i
CCOc1ccc(C(=O)Nc2ccc(NC(=O)c3cccs3)cc2)cc1[N+](=O)[O-],0.91,-3,103,.,1.5,.,i
C=CCNc1oc(Cc2cccc3ccccc23)nc1C#N,1,5,92,.,-2.5,.,i
Fc1cccc(/C=C2\CCCC3=C2NC(=S)NC3c2cccc(F)c2)c1 (stereo unspecified),1.1,.,98,.,.,.,i
CNC1=C([N+](=O)[O-])CC([N+](=O)[O-])=C(N2CCNCC2)N1C,1.1,3,62,46,.,-55,i
Cc1cc2cc(CNC(=O)c3ccc(Br)o3)ccc2[nH]1,1.1,.,99,.,.,.,i
Cc1cccc(NC(=S)NNC(=O)c2cccc([N+](=O)[O-])c2)c1,1.5,.,91,.,.,.,i

Ordered by SMILES length (falling): part of the list above.
canonical_smiles,HSV replic up primary fold,PKD1 inh,RGS16-Gao HTS,INS promoter inh cell count,GALR2 agonist,INS promoter inh,HSV replic up
Cc1ccc(NC(=O)C(=Cc2ccc(C(=O)O)cc2)C(=O)Nc2ccc(C)cc2C)c(C)c1,0.53,.,80,.,.,.,i
CCOc1ccc(C(=O)Nc2ccc(NC(=O)c3cccs3)cc2)cc1[N+](=O)[O-],0.91,-3,103,.,1.5,.,i
CNC1=C([N+](=O)[O-])CC([N+](=O)[O-])=C(N2CCNCC2)N1C,1.1,3,62,46,.,-55,i
Cc1cccc(NC(=S)NNC(=O)c2cccc([N+](=O)[O-])c2)c1,1.5,.,91,.,.,.,i
Fc1cccc(/C=C2\CCCC3=C2NC(=S)NC3c2cccc(F)c2)c1 (stereo unspecified),1.1,.,98,.,.,.,i
Cc1ccc(S(=O)(=O)N(CC(O)CN2CCCC2)c2ccccc2)cc1 (stereo unspecified),0.79,5,88,.,-0.8,.,i
Cc1cc(C)[n+]2[nH]c(N)c(N=Nc3ccccc3)c2n1,1,.,102,.,.,.,i
Cc1cc2cc(CNC(=O)c3ccc(Br)o3)ccc2[nH]1,1.1,.,99,.,.,.,i
C=CCNc1oc(Cc2cccc3ccccc23)nc1C#N,1,5,92,.,-2.5,.,i
S=c1nc(-c2ccccc2Br)[nH][nH]1,0.78,-5,102,124,-1.2,5,i

The list continues.
canonical_smiles,HSV replic up primary fold,PKD1 inh,RGS16-Gao HTS,INS promoter inh cell count,GALR2 agonist,INS promoter inh,HSV replic up
CN(C)S(=O)(=O)c1cccc(NC(=S)N/N=C/C(c2ccccc2)c2ccccc2)c1,0.95,-8,6,67,-0.6,17,i
Cn1c(S(=O)(=O)Cc2ccc(Cl)cc2)nc2ccccc21,0.93,-3,95,.,.,.,i
OC(COc1ccc2ccccc2c1Br)Cn1ccnc1 (stereo unspecified),0.92,-2,105,122,-3.2,41,i
CC(C)C(C(=O)O)N1C(=O)/C(=C/C=C/c2ccco2)SC1=S (stereo unspecified),.,5,89,97,-1.6,40,?
Cc1ccc(C)c(NC(=S)N2CCC(c3nc4ccccc4s3)CC2)c1,1,-4,129,121,-2.5,10,i
Cc1cc(C)cc(N(CC(=O)NC2CCC(C)CC2)S(=O)(=O)c2c(C)[nH]c(=O)[nH]c2=O)c1 (stereo unspecified),0.93,.,112,.,.,.,i
COc1cc(C(O)P(=O)(OC(C)C)OC(C)C)cc(OC)c1OC (stereo unspecified),0.97,12,102,107,-1.5,-15,i
CCCCn1c(N)c(N2CCOCC2)c(=O)n(CC(=O)NC(C)c2ccccc2)c1=O (stereo unspecified),0.96,-5,96,.,.,.,i
O=C(NC(=S)Nc1ccccc1N1CCCC1)c1ccc(-c2cccc([N+](=O)[O-])c2)o1,0.71,-6,97,136,-3.1,-6,i
Cc1cc(C)n(Cc2ccc(NC(=O)c3nn(C)cc3[N+](=O)[O-])cc2)n1,0.79,-9,101,117,-1.4,64,i
Cn1c(C(C#N)C2=C(Cl)C(=O)N(c3ccccc3)C2=O)nc2ccccc21 (stereo unspecified),0.72,-5,94,.,-2.6,.,i
COc1nc(NCC(C)C)nc(Oc2ccc(=O)n(-c3ccccc3)n2)n1,0.72,-2,103,.,-0.1,.,i
Cc1nn(CC(=O)Nc2ccc(C(=O)N3CCCC3)cc2)c(=O)c2ccccc12,0.88,5,106,.,0.3,.,i
CCOC(=O)C(NC(C)=O)(Nc1ccc(S(N)(=O)=O)cc1)C(F)(F)F (stereo unspecified),0.99,-10,59,111,0.3,-30,i
CCc1nnc(NC(=O)CSc2nc3c(C)cccc3[nH]2)s1,0.96,-12,107,101,-2.4,-21,i
Cc1cccn2cc(CNc3ccccc3)nc12,0.94,-12,101,110,-1.6,36,i
COc1ccc(C(=O)OCCNC(=O)c2ccncc2)cc1OC,1.1,1,99,.,-0.1,.,i
COc1ccccc1-c1noc(-c2ccccc2C(=O)N2CCOCC2)n1,0.75,-2,103,118,-1.9,42,i
NS(=O)(=O)c1ccc(CNC(=O)c2csc3c2CCCC3)cc1,0.95,2,100,90,.,-71,i
O=C(Nc1ccc(-c2cn3c(n2)SCC3)cc1)c1ccc2c(c1)OCO2,1,-3,105,133,.,50,i
CCNc1nc(NC(C)C)nc(SCCOc2ccc(C)cc2)n1,0.9,-2,98,84,-2.3,-11,i
CC1(C)OC(=O)C(=CNC(CCC(N)=O)C(=O)O)C(=O)O1 (stereo unspecified),0.93,-8,68,93,-1.9,52,i
Brc1ccc(Oc2nnnn2-c2ccccc2)cc1,0.87,-3,96,.,-2.9,.,i
CCOC(=O)Cc1csc(NC(=O)CSc2nnc(-n3nc(C)cc3C)c3ccccc23)n1,0.72,-18,101,.,-1.4,.,i
CC(=O)c1cn(C)c(=O)c2ccccc12,0.91,.,95,.,.,.,i
CN1CCN(CC2(O)CCN(S(=O)(=O)c3ccc(Cl)cc3)CC2)CC1,0.94,-4,84,91,.,12,i
O=C1C2CCCN2C(c2ccco2)N1c1ccc(F)cc1 (stereo unspecified),1,3,101,65,.,15,i
Nc1nc(-c2cccnc2)nn1C(=O)c1ccco1,.,7,101,152,-0.8,-36,.
CN(C)Cc1cc(O)c(CN(C)C)cc1O,1.3,.,63,.,.,.,i
COC(=O)c1ccc(N2C(=O)CC(N3CCN(C(=O)c4ccco4)CC3)C2=O)cc1 (stereo unspecified),0.94,-11,109,.,-1.6,.,i
Cc1cc2nnc(SC3CCOC3=O)n2c2ccccc12 (stereo unspecified),0.94,-6,101,.,-0.6,.,i
COc1ccc(C(=O)Nn2c(SCC(=O)NC3CCCCC3)nc3ccccc3c2=O)cc1,0.93,-5,106,101,-1.5,63,i
Cn1ccc(-c2cc(C(=O)O)c3ccccc3n2)n1,0.84,4,102,75,.,8,i
N#Cc1c2ccc(OCC(N)=O)cc2n2ccccc12,0.84,-4,98,123,.,-60,i
Cc1ccc(-n2c([S-])c(C(=O)NC(C)c3ccccc3)[n+]3ccccc23)cc1 (stereo unspecified),0.93,1,96,85,.,-14,i
Cc1ccc(C(=O)NC2(C(F)(F)F)NC(=O)N(c3ccc(Cl)cc3)C2=O)cc1 (stereo unspecified),0.78,6,101,.,-0.4,.,i
COC(=O)c1ccc2nc(NC(=O)CSCC(=O)OCC(=O)c3ccccc3)sc2c1,0.9,3,80,133,-0.7,31,i
COC(c1ccccc1)c1c(-c2ccccc2)nn(C)c1Cl (stereo unspecified),1.1,2,100,.,-0.8,.,i
CCCCn1c(N(CCOC(C)=O)C(C)=O)nc2ccccc21,0.82,-4,73,35*,-0.3,89*,i
Cc1cc(N2CCC(C)CC2)c(F)cc1[N+](=O)[O-],1.1,0,105,98,-2.2,0,i
Nc1nc(SCC(=O)c2ccc(Br)s2)n[nH]1,0.87,-4,112,86,.,-10,i
CC(C)SCc1nc2ccccc2[nH]1,.,0,99,.,0.0,.,.
CN(C)C(=O)Nc1ccc(F)cc1F,0.98,-8,97,87,-1.5,39,i
CC(=O)Nc1ccc2c(c1)nc(CN1CCCC1)n2C,0.88,-3,97,148,-3.1,64,i
COc1ccc(N2CCN(c3nc4ccc(C)cn4c(=O)c3C=O)CC2)cc1,0.99,2,100,71,.,30,i
Cc1cc(C)n2c(SCc3ccc(Cl)cc3Cl)nnc2n1,0.87,-13,101,117,1.2,-5,i
CCOC(=O)C1(CCc2ccccc2)CCN(C(=O)C2CCCO2)CC1 (stereo unspecified),0.94,4,91,.,.,.,i
COc1ccc2[nH]c(=O)c(CN(Cc3cccnc3)C(=O)Nc3ccccc3)cc2c1,1,-3,95,85,-0.9,23,i
CSc1cccc(NC(=O)CSc2ccc(C)cc2)c1,0.89,-6,98,90,-0.5,7,i
Cn1c(=O)n(C)c2cc(S(=O)(=O)Nc3cc(Cl)ccc3O)ccc21,1.1,-3,107,.,.,.,i

The results go on.
canonical_smiles,HSV replic up primary fold,PKD1 inh,RGS16-Gao HTS,INS promoter inh cell count,GALR2 agonist,INS promoter inh,HSV replic up
CCOC(=O)c1c(C)[nH]c(C(=O)CN2CCN(CC)CC2)c1C,1,.,89,.,.,.,i
CCOc1ccc(NC2=C(Cl)C(=O)N(Cc3ccccc3)C2=O)cc1,0.89,-7,100,100,-1.5,42,i
Cc1cccc(C)c1Nc1nnc(SC/C(O)=C(\C#N)c2nc3ccccc3[nH]2)s1,1.1,1,99,66,-1.6,-20,i
COc1ccc(-n2cccc2C=O)cc1OC,0.88,-12,112,159,-0.7,-29,i
O=C(Cn1cnc2ccccc2c1=O)N1CCN(Cc2ccc3c(c2)OCO3)CC1,.,-2,104,80,-0.7,-30,.
Cc1ccc(S(=O)(=O)C2CCOC2=O)cc1 (stereo unspecified),1.1,3,105,.,-0.7,.,i
CC(/C=C/c1ccccc1)=N\Nc1ccccc1[N+](=O)[O-],1,-1,110,.,.,.,i
COCCn1c(SCC(=O)Nc2ccc(Cl)cn2)nnc1-c1ccncc1,1.1,0,100,79,.,7,i
Cc1ccc(C2CC(=O)N3CN(c4ccc(Br)cc4)CSC3=C2C#N)o1 (stereo unspecified),1,-6,130,66,-1.6,7,i
CC1=NC(=O)C(N=Nc2ccccc2C(=O)O)N1c1ccccc1 (stereo unspecified),0.93,10,118,.,.,.,i
